# D2 ag: agonists of human D2 dopamine receptor (beta-arrestin) | AID 624465 | P14416 | activation, % (concentration not given with the values) | DiscoveRx PathHunter D2 beta-arrestin, luminescence, 90 min; 100% = 57 uM dopamine signal | actives 0.084% (n = 360,000); in the data active = activation above about 40%; inconclusive = about 15% to 40%; inactive = below about 15%; also: compound concentration not given in the record; the text of the record calls up to 30% inactive
# Target sequence (P14416 whole entry, looked up): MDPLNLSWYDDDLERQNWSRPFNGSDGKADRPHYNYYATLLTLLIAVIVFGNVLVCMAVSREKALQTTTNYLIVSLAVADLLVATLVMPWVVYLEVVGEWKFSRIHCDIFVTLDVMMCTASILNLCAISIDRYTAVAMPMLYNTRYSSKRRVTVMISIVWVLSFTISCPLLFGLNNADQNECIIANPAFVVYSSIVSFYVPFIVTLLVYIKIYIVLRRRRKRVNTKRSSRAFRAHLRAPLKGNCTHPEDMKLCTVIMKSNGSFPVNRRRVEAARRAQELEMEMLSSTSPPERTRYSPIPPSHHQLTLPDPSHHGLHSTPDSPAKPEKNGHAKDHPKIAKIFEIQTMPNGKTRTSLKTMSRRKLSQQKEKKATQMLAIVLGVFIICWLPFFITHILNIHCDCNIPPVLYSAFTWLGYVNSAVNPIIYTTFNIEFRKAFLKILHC
#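 Agonist mode: compounds alone added to overnight-plated D2 PathHunter cells for 90 min at 37 C, with 57 uM final dopamine (EC100) defining full response. Beta-arrestin recruitment detected by chemiluminescent reagent, read after 1 h at ambient temperature.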
# CtBP-E1A blk: CtBP/E1A binding inhibition; AlphaScreen GST-E1A/His-CtBP binding, 1536-well; stronger effect = lower value; control for the full effect not named in the record; activity change, % (no concentration beside the values); actives 0.49% (n = 340,000); AID 651724; in the data active means activity change below about -65%; inconclusive means about -30% to -65%; inactive means above about -30%; also: % is scaled to controls: 0 for no effect and ±100 for the full control effect; compound concentration not given in the record
#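 Protein mix (5X: 125 nM each GST-E1A, His-CtBP) was incubated with pinned compound 2 h at 37 deg C in dark, in 50 mM Tris pH 8.0 buffer with 300 mM NaCl. Glutathione donor and nickel acceptor beads followed; AlphaScreen signal read after 1 h.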
# Six1-Eya2 inh: Six1/Eya2 interaction inhibition. Q15475+O00167. activity change, % (concentration not given with the values). AlphaScreen GST-Six1/His-Eya2 binding, biochemical; stronger effect = lower value; control for the full effect not named in the record. actives 0.56% (n = 360,000); in the data active = activity change below about -65%; inconclusive = about -30% to -65%; inactive = above about -30%; also: % is scaled to controls: 0 for no effect and ±100 for the full control effect
#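 Homogeneous AlphaScreen proximity assay pairing GST-Six1 with His-tagged Eya2 (added as 5X mix: 250 nM and 500 nM) in 50 mM Tris pH 8.0, 300 mM NaCl, 1 mM TCEP. Glutathione donor and nickel acceptor beads; 1 h, 37 °C, dark.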
# D2 PAM: potentiates the human D2 dopamine receptor allosterically; DiscoveRx D2 beta-arrestin cells, luminescence, 90 min; 100% = 57 uM dopamine signal; potentiation, % (no concentration beside the values); actives 0.23% (n = 360,000); active = potentiation of 50% or more; inconclusive = 30% to 50%; inactive = 30% or less;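 also: compound concentration not given in the record; tested on top of an EC20 dose of dopamine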
#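 PathHunter D2 cells, attached overnight at 37 deg C, received compound in DMSO plus dopamine at EC20 (50 nM final) for 90 min at 37 deg C. Beta-arrestin recruitment was read as luminescence after 1 h with detection reagent at ambient temperature.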
# PINK1 modulator: changes PINK1 expression; PINK1 immunofluorescence, high-content cytometry, 24 h; Potency, µM (series often up to 76.6 µM), without a hit: top-dose activation (PINK1 increase), most hits filed as activators; actives 0.2% (n = 410,000); active = well fitted activation curve with a large enough effect; inconclusive = small, poorly fitted or top-dose-only effect; inactive = flat fitted curve, though single readings scatter; cell line not stated here;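 also: potency is read from the fitted curve at half-maximal effect; % of control where 0% means no effect; nearly all actives have a fitted effect of over 65% in size; a mitochondrial uncoupler was the plate control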
#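 Stable cell line treated 24 h with compounds at 5 concentrations (CCCP controls), then fixed and immunostained for PINK1 plus nuclear and cell stains; PINK1 immunofluorescence quantified by laser-scanning microplate cytometry.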
# TRPML1 ag: human mucolipin-1 channel agonism; AID 624414; actives 0.12% (n = 410,000); TRPML1-expressing cells, Ca2+ dye fluorescence, FDSS; host cell line not named in the record; reference of the full effect not given here; activation, % (test concentration not listed); Q9GZU1; in the data active = activation above about 50%; inconclusive = about 30% to 50%; inactive = below about 30%; also: 0% is about no effect; the text of the record puts the active cut at 80%
# Target sequence (Q9GZU1 whole entry, looked up): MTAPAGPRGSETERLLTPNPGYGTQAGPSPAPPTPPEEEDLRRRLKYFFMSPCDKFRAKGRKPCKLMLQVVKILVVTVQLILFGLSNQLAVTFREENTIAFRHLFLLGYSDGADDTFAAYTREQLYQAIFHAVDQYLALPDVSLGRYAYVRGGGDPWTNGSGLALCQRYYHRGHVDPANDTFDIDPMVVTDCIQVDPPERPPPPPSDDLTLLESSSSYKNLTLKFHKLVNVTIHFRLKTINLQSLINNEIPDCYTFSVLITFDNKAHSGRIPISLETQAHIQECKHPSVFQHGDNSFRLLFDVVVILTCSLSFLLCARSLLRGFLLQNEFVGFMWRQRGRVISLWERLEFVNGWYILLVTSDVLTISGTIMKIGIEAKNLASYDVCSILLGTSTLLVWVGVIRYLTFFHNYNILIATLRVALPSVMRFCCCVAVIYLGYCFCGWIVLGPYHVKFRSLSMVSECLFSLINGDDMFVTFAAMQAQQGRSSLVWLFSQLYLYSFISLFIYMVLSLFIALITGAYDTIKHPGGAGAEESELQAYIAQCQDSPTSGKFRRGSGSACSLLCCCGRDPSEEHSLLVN
#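 Cells: TRPML1-DL, 1X Tet inducer, ~16 h at 37 degrees C/5% CO2. Dye: ABD Ca8 no-wash + quencher, 45-90 min RT. Read: 10 s baseline, compound add, 110 s agonist phase; 54-4 EC80 (4uM final), 110 s antagonist phase.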
# The depositor's hits bear a star; ? = inconclusive; . = no result given; [ ] = dose if it differs, or a comment.
nr | compound | D2 ag | CtBP-E1A blk | Six1-Eya2 inh | D2 PAM | PINK1 modulator | TRPML1 ag
1 | CN1CCN(c2ncnc3c2ncn3[C@H]2CN(Cc3ccncc3)C[C@@H](CO)O2)CC1 | -4.8 | -13 | 6 | -4 | 0.5% | -0.1
2 | CC1(C)Cc2c(cnn2-c2cccc(F)c2)C(NC(=O)CSc2ccccn2)C1 (configuration not stated) | -2.4 | . | -11 | -6 | -1.3% | -0.5
3 | CSc1ccccc1NC(=O)c1cc(Cl)sc1Cl | 0.5 | 33 | 27 | -1 | 0.8% | -1.5
4 | Cc1[nH]c2ccccc2c1C(=O)CN1CCC(C)CC1 | -1.8 | 8 | 3 | -9 | -0.3% | -0.6
5 | Cc1ccc(OCC(=O)Nc2ccc3c(c2)OCO3)c([N+](=O)[O-])n1 | -2.3 | -1 | -4 | -1 | -0.4% | -0.4
6 | COc1ccccc1C(=O)N(CN1CCCC1=O)c1cccc(Cl)c1 | -1.7 | -5 | 5 | 0 | 3.4%[38.3 µM] | -0.4
7 | CC1CCc2cc(F)cc3c(O)c(C(=O)NCc4ccco4)c(=O)n1c23 (configuration not stated) | -8.5 | 0 | 1 | -4 | 1.3% | 0.4
8 | Cc1c(C(=O)OC(C)C)[nH]c2c1C(=O)CC(C)(C)C2 | -3.1 | 14 | 2 | -2 | . | -0.1
9 | O=C(Cc1c(F)cccc1Cl)NC1CCN(Cc2ccccc2)CC1 | -6.7 | 6 | 0 | -52 | -1.3% | 0.3
10 | Cc1cc(C[n+]2cc(Cl)ccc2N)c2ncccc2c1 | -6.5 | -2 | -14 | -7 | 0.3% | -0.5
11 | COC(=O)c1c(NC(=O)CSc2nnnn2-c2ccccc2)sc2c1CCC(C(C)(C)C)C2 (configuration not stated) | -3.4 | 2 | -10 | -17 | 6.0% | 0.2
12 | CC(OC(=O)c1ccccc1NCCO)C(=O)Nc1ccc(S(=O)(=O)N2CCOCC2)cc1 (configuration not stated) | -1.0 | 0 | 4 | -3 | 1.9% | 0.4
13 | Cc1cccc(OC(=O)CCN2C(=O)C3C4C=CC(C5CC45)C3C2=O)c1C (configuration not stated) | -1.9 | . | -2 | -7 | 1.8% | 0.5
14 | O=[N+]([O-])c1ccc(S(=O)(=O)Nc2ccc(S(=O)(=O)N3CCCC3)cc2)cc1 | 0.1 | 3 | -6 | 3 | 0.3% | 0.1
15 | NC(=O)c1ccc(NC(=O)COC(=O)c2ccc(Br)c(S(=O)(=O)N3CCOCC3)c2)cc1 | 7.8 | -16 | 0 | -12 | 1.0% | 0.5
16 | CCOC(=O)c1cnc2c(C)c(C)ccc2c1NCCN1CCOCC1 | -4.8 | -1 | -14 | -9 | 1.1% | -0.6
17 | COc1ccc(OCC(=O)N/N=C2\CCCc3ccccc32)cc1 | -5.2 | 5 | 1 | -25 | 1.3% | -0.2
18 | COc1ccc(N2CC(C(=O)NCCC3=CCCCC3)CC2=O)cc1 (configuration not stated) | -1.8 | 6 | 8 | 23 | -0.1% | -0.6
19 | O=Cc1c(NCc2ccccc2)c2ccccc2[nH]c1=O | 1.4 | . | -2 | -25 | -1.7% | -0.6
20 | O=C1C=C(Nc2ccccc2C(=O)O)c2ccccc2C1=O | 3.2 | -29 | -20 | 8 | 0.1% | 0.3
21 | CCOc1ccc(NS(=O)(=O)c2cc(C(=O)NCCN3CCOCC3)ccc2C)cc1 | 0.9 | 4 | 12 | -14 | 0.1% | 0.3
22 | Cc1cccc2cc(C#N)c(SCC(=O)N3CCC(C)CC3)nc12 | 0.3 | -1 | 2 | -11 | -1.5% | 2.6
23 | C=CCN(c1ccc(C(=O)Nc2ccc(NC(C)=O)cc2)cc1)S(C)(=O)=O | 0.0 | 4 | 0 | -3 | -0.6% | 0.5
24 | CS(=O)(=O)N1N=C(c2ccco2)CC1c1ccc(Br)cc1 (configuration not stated) | 2.4 | -4 | 2 | -2 | -1.5% | 4.3
25 | Cc1ccccc1OCC(=O)NCC(C)(C)N1CCOCC1 | -0.7 | 1 | 9 | 15 | -3.5% | 0.5
26 | CC(C)CSc1nc2c(c(=O)[nH]c(=O)n2C)n1CC(O)COc1cccc2ccccc12 (configuration not stated) | -7.2 | -6 | -10 | 21 | 6.2% | 4.1
27 | Cc1cc(C(=O)NNS(=O)(=O)c2ccc(C(C)(C)C)cc2)nn1C(C)(C)C | 1.2 | . | 4 | -7 | 0.8% | 3.6
28 | CC1CN(c2nc(N(C)c3ccccc3)nc(N)c2[N+](=O)[O-])CC(C)O1 (configuration not stated) | -1.5 | -8 | -8 | -3 | 2.8% | 0.7
29 | C#CCOCCOCCOCCNc1nc(N2CCN(C(=O)[C@H]([C@@H](C)CC)n3cc(CCCCN)nn3)CC2)nc(N2CCN(C(=O)[C@H](C)n3cc(CCCN=C(N)N)nn3)CC2)n1 | -1.7 | 0 | 2 | -8 | 2.4% | -1.0
30 | Cc1cn(CC(C)C)c(=O)n(-c2ccccc2)c1=O | 3.0 | 4 | 3 | 3 | 1.9% | -0.7
31 | COc1cnc(-c2ccccn2)[nH]c1=O | -1.3 | -94* | -91* | -9 | 4.9% | -0.6
32 | COc1ccccc1CNC(=O)C1CCCN(S(=O)(=O)c2cccc3nonc23)C1 (configuration not stated) | -4.2 | -2 | 9 | -13 | 0.1% | -0.4
33 | O=C1C(Nc2ccccc2)=C(N2CCCCC2)C(=O)c2ccccc21 | 6.7 | 21 | 15 | 19 | 0.9% | -0.2
34 | CCOC(=O)C1(CCc2ccccc2)CCN(Cc2c(O)cccc2OC)CC1 | -4.2 | -21 | 7 | -2 | 19% | -0.5
35 | O=C(c1cnc2ccccn2c1=O)N1CCc2ccccc21 | -1.3 | -12 | -7 | -2 | ? | 0.8
36 | COC(=O)c1cccc(Oc2cccc(Cl)n2)c1 | 4.0 | . | 7 | -9 | -1.0% | 1.4
37 | Cc1noc(C)c1COc1ccccc1C(=O)N1CCN(S(=O)(=O)c2cccc(Cl)c2)CC1 | -8.7 | 3 | 4 | 0 | 1.6% | -0.8
38 | N#Cc1ccccc1CSc1nnc(Cc2ccccc2)o1 | 2.8 | 7 | 11 | 0 | 0.6% | -0.3
39 | COc1ccc(-c2nc3c4ccccc4ccn3c2Cc2cccc(Cl)c2)cc1OC | -1.9 | -4 | 1 | -9 | 2.3% | 0.9
40 | CCOc1cccc(OCCOCCN2CCCC2)c1 | -3.1 | -2 | 2 | -19 | 0.9% | 0.3
41 | O=C(NNC(=O)c1ccc(SCC2CCCO2)c([N+](=O)[O-])c1)c1ccc(F)cc1 (configuration not stated) | -3.9 | 2 | -1 | 8 | 9.2%[38.3 µM] | 1.6
42 | COC(=O)CCCn1c(C)cc(C(=O)CCl)c1C | -2.1 | 0 | 2 | -13 | 3.3% | -0.2
43 | COc1cc(/C=C/C(=O)OCC(=O)c2ccccc2)cc(OC)c1OC | 13 | . | -8 | 7 | 1.4% | 1.6
44 | COc1ccc(CN2CCCCCC2)c(C)c1C | -2.9 | 7 | 5 | -14 | 3.9%[38.3 µM] | 0.8
45 | C/C(N)=C(/C#N)C(=O)COC(=O)C1CCN(S(=O)(=O)c2cccs2)CC1 | 1.9 | 2 | -5 | -2 | -0.2% | 0.0
46 | Cc1cccc(C2NS(=O)(=O)N=C2N)c1 (configuration not stated) | 2.5 | -1 | 7 | -5 | . | -0.1
47 | CC(Oc1ccccc1F)C(=O)NNC(=O)CC(C)c1ccccc1 (configuration not stated) | 2.6 | -20 | 14 | -11 | -0.6% | 0.2
48 | COc1ccc(-c2nc(CS(=O)CC(=O)NC3CCCC3)c(C)o2)cc1 (configuration not stated) | -3.2 | 5 | 5 | -3 | -0.9% | -1.1
49 | CCC(=O)Nc1nc2ccccc2n1Cc1ccccc1C | 1.0 | 0 | -1 | -3 | 6.3% | 1.6
50 | CC(C)(C)NC(=O)Cn1c(SCC(=O)N2CCCCCC2)nc2ccccc21 | -0.5 | -1 | -1 | 5 | 6.6%[38.3 µM] | 3.1

# Shown in transposed form: entries from further up.
37. Cc1noc(C)c1COc1ccccc1C(=O)N1CCN(S(=O)(=O)c2cccc(Cl)c2)CC1
38. N#Cc1ccccc1CSc1nnc(Cc2ccccc2)o1
39. COc1ccc(-c2nc3c4ccccc4ccn3c2Cc2cccc(Cl)c2)cc1OC
40. CCOc1cccc(OCCOCCN2CCCC2)c1
41. O=C(NNC(=O)c1ccc(SCC2CCCO2)c([N+](=O)[O-])c1)c1ccc(F)cc1 (configuration not stated)
42. COC(=O)CCCn1c(C)cc(C(=O)CCl)c1C
43. COc1cc(/C=C/C(=O)OCC(=O)c2ccccc2)cc(OC)c1OC
44. COc1ccc(CN2CCCCCC2)c(C)c1C

Screen / compound no.	37	38	39	40	41	42	43	44
D2 ag	-8.7	2.8	-1.9	-3.1	-3.9	-2.1	13	-2.9
CtBP-E1A blk	3	7	-4	-2	2	0	.	7
Six1-Eya2 inh	4	11	1	2	-1	2	-8	5
D2 PAM	0	0	-9	-19	8	-13	7	-14
PINK1 modulator	1.6%	0.6%	2.3%	0.9%	9.2%[38.3 µM]	3.3%	1.4%	3.9%[38.3 µM]
TRPML1 ag	-0.8	-0.3	0.9	0.3	1.6	-0.2	1.6	0.8

45. C/C(N)=C(/C#N)C(=O)COC(=O)C1CCN(S(=O)(=O)c2cccs2)CC1
46. Cc1cccc(C2NS(=O)(=O)N=C2N)c1 (configuration not stated)
47. CC(Oc1ccccc1F)C(=O)NNC(=O)CC(C)c1ccccc1 (configuration not stated)
48. COc1ccc(-c2nc(CS(=O)CC(=O)NC3CCCC3)c(C)o2)cc1 (configuration not stated)
49. CCC(=O)Nc1nc2ccccc2n1Cc1ccccc1C
50. CC(C)(C)NC(=O)Cn1c(SCC(=O)N2CCCCCC2)nc2ccccc21

Screen / compound no.	45	46	47	48	49	50
D2 ag	1.9	2.5	2.6	-3.2	1.0	-0.5
CtBP-E1A blk	2	-1	-20	5	0	-1
Six1-Eya2 inh	-5	7	14	5	-1	-1
D2 PAM	-2	-5	-11	-3	-3	5
PINK1 modulator	-0.2%	.	-0.6%	-0.9%	6.3%	6.6%[38.3 µM]
TRPML1 ag	0.0	-0.1	0.2	-1.1	1.6	3.1

# Carrying on:
nr | compound | D2 ag | CtBP-E1A blk | Six1-Eya2 inh | D2 PAM | PINK1 modulator | TRPML1 ag
51 | CCN(CC)C(=O)C1CCCN(c2ccc([N+](=O)[O-])cc2[N+](=O)[O-])C1 (configuration not stated) | -2.4 | . | -18 | 16 | -0.3% | 0.9
52 | Cc1cc(F)ccc1S(=O)(=O)N1CCCOC1CNC(=O)C(=O)NCc1cccnc1 (configuration not stated) | -1.4 | 4 | 0 | 8 | 0.2% | -0.2
53 | O=C(C1=C[C@H](c2csc3ccccc23)C[C@H](OCCCCO)O1)N1CCN(Cc2ccc3c(c2)OCO3)CC1 | 1.9 | -11 | -21 | -17 | 1.0% | 0.5
54 | Cc1ccc(-c2onc3ccc(C(=O)/C=C/N(C)C)cc23)cc1 | ? | 1 | -5 | 21 | -1.2% | 0.1
55 | Cc1nc2ccccc2c2c(N)c3ccccc3n12 | 14 | 14 | -2 | -3 | 3.8% | 0.8
56 | CCOC(=O)[C@H]1[C@H]2COc3ccc(Cl)cc3[C@@H]2N2C(=O)c3ccc(F)cc3NC(=O)[C@@]12C | 1.8 | -4 | -7 | -2 | 1.4% | 2.5
